# VCAM-1 up: boosters of cytokine-driven VCAM-1 levels – cell-based, plate reader, pooled HUVEC, TNFa stimulus (AID 455); HUVEC TNFa-induced VCAM-1 immunofluorescence, plate reader; numbers were filed only for top-ranked candidate wells; augmentation, % at 5 µM; 10,000 compounds, 0.2% hits;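 active means a compound raising TNF-alpha-driven VCAM-1 surface staining, with its hit status upheld on visual or statistical review; inactive means the rest, including hits rejected on review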;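 further: 0% = TNFa with vehicle and 100% = strongest image-checked hit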
# Proteasome disasm: blocks ATP-dependent breakdown of the yeast 26S proteasome; 24,000 compounds, 0.2% hits; anti-FLAG beads, GFP-proteasome disassembly, flow cytometry; inhibition of disassembly, % (test concentration not listed);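 active means above 40%; inconclusive means likely self-fluorescent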;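 further: plate controls were ATP control with full disassembly for no effect and ATP-gamma-S intact proteasomes for full effect; higher percent means more bead fluorescence retained so stronger block of disassembly; stock transfer was 100 nL into about 10 µL; wells with too few beads may also be inconclusive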
# * hit, by the source's call; i = inactive; ? = inconclusive; . = not tested or not shown. The list is partial (hit frequency here may not be typical).
cpd	canonical_smiles	VCAM-1 up	Proteasome disasm
1	CCOc1ccc2nc(Nc3nc4c(c(=O)[nH]3)CCC4)nc(C)c2c1	i	-0.7
2	O=C1N2c3ccccc3CCc3cccc(c32)C1(O)C(F)(F)F (stereo not given)	i	-2.0
3	CC(C)CN(CC(C)C)S(=O)(=O)N1CCC(C(=O)NCCN2CCOCC2)CC1	.	-0.8
4	O=C(CN1CCN(c2ccccc2F)CC1)c1ccc2cc[nH]c2c1	.	-0.3
5	CCC1(CC)C(=O)C(C)(C)C(=O)OC1c1cccs1 (stereo not given)	i	-0.6
6	COc1ccc(N2CCN(C(CNS(=O)(=O)c3cc(F)ccc3F)c3cccnc3)CC2)cc1 (stereo not given)	.	2.2
7	CCOC(=O)N1CCC(NC(=O)c2sc(-n3cccc3)nc2C)CC1	.	-1.1
8	CCOC(=O)c1[nH]c2ccc(F)cc2c1NC(=O)C(C)N1CCc2cc(OC)c(OC)cc2C1 (stereo not given)	i	1.2
9	Cc1ccc(S(=O)(=O)Cc2ccc(C(=O)N3CCCCCC3)o2)cc1	.	0.3
10	CCOc1ccc(N2C(=O)c3ccccc3C2O)cc1 (stereo not given)	.	0.0
11	CC1=C(C(=O)NCCN2CCN(C)CC2)C2(CCC(C)CC2)OC1=O (stereo not given)	.	-1.5
12	O=C(CN1C(=O)CC(c2ccco2)Sc2ccccc21)Nc1ccc2c(c1)OCCO2 (stereo not given)	i	0.0
13	COc1ccc(C)cc1S(=O)(=O)N(C)CC(=O)Nc1ccc2c(c1)OCO2	i	-1.1
14	COc1ccccc1Nc1nc(N)nc(CN2CCN(c3ccccc3F)CC2)n1	i	1.0
15	CCCCN(CC)CCNc1c(N2CCN(C(=O)OCC)CC2)c(=O)c1=O	.	-1.1
16	CCOc1ccc(N(CC(=O)Nc2ccc(C)c(C)c2)S(=O)(=O)c2c(C)noc2C)cc1	i	0.8
17	O=C(CSc1nnnn1C1CCCC1)Nc1cccc(NC(=O)c2ccco2)c1	i	0.3
18	COc1cc(NC(=O)C2CCN(S(=O)(=O)c3cccc4nonc34)CC2)cc(OC)c1	.	-1.5
19	COCCn1c(Sc2nc(C)cs2)nc2c1c(=O)[nH]c(=O)n2C	i	-0.9
20	CCOc1ccc(N(CC(=O)N2CC=C(c3ccccc3)CC2)S(=O)(=O)c2c(C)noc2C)cc1	.	0.1
21	Cc1ccc(S(=O)(=O)NCCN(CCNS(=O)(=O)c2ccc(C)cc2)S(C)(=O)=O)cc1	.	-3.4
22	Cc1cc(=O)n(C)c(=O)n1CCCNc1ccccc1	i	-0.8
23	CCN(CC)S(=O)(=O)c1ccc(C(=O)NCCc2cc3c(OC)ccc(OC)c3[nH]c2=O)cc1	.	1.1
24	CC(C)C(NC(=O)CC12CC3CC(CC(C3)C1)C2)C(=O)O (stereo not given)	.	-1.7
25	Cc1ccc(Cn2nnc(C(=O)Nc3cccc(C)c3C)c2N)cc1	i	-0.5
26	O=C(CSc1nnc2scc(-c3ccccc3)n12)NCc1ccco1	.	-0.2
27	O=C(Cn1cnc2ccccc2c1=O)NCCC(=O)N1CCN(Cc2ccccc2)CC1	i	-0.6
28	CCCCOC(=O)C1=C(C)Nc2nnnn2C1c1ccc(OC)c(OC)c1OC (stereo not given)	.	-0.7
29	Nc1ccc(S(=O)(=O)Nc2ccccn2)cc1	i	-0.6
30	COc1ccc(Br)c(C(=O)Nn2c(C)nc3ccccc3c2=O)c1	.	0.0
31	COc1ccc(N2CCN(C(=O)c3ccc4nc(N5CCCCC5)sc4c3)CC2)cc1	.	1.2
32	CCCCNc1cc(=O)n(C)c(=O)[nH]1	.	-0.7
33	CC(=O)c1c(C)nc2ccccn12	.	-2.2
34	COc1ccc(Br)cc1S(=O)(=O)N1CC(C)OC(C)C1 (stereo not given)	i	-2.4
35	CN(CC(=O)Nc1ccc(F)c(Cl)c1)S(=O)(=O)c1cccc2nsnc12	34	-5.7
36	COCCCN1C(=O)C(=O)/C(=C(/O)c2ccc(OCC(C)C)cc2C)C1c1cccnc1 (stereo not given)	i	-1.8

# In a second layout: five of the compounds above.
nr	VCAM-1 up	Proteasome disasm	SMILES
25	i	-0.5	Cc1ccc(Cn2nnc(C(=O)Nc3cccc(C)c3C)c2N)cc1
26	.	-0.2	O=C(CSc1nnc2scc(-c3ccccc3)n12)NCc1ccco1
27	i	-0.6	O=C(Cn1cnc2ccccc2c1=O)NCCC(=O)N1CCN(Cc2ccccc2)CC1
28	.	-0.7	CCCCOC(=O)C1=C(C)Nc2nnnn2C1c1ccc(OC)c(OC)c1OC (stereo not given)
29	i	-0.6	Nc1ccc(S(=O)(=O)Nc2ccccn2)cc1

# New compounds follow:
cpd	canonical_smiles	VCAM-1 up	Proteasome disasm
37	COc1ccc(-c2noc(CCC(=O)NCCCN3CCC(C)CC3)n2)cc1	.	4.4
38	CCOc1cc(NC(=O)c2ccco2)c(OCC)cc1NC(=O)CCc1ccc(OC)cc1	i	-0.7
39	CCCOc1ccc(C2C(C(=O)OC)=C(C)N=C3SCCC(=O)N32)cc1OCC (stereo not given)	.	0.8
40	CCCn1cnc2c(cnn2-c2ccc(F)cc2)c1=O	i	0.7
41	COCCCN1CC23C=CC(O2)C(C(=O)O)C3C1=O (stereo not given)	.	0.7
42	COc1ccc(C2N3CC4(C)CN2CC(C)(C3)C4O)cc1 (stereo not given)	.	0.1
43	O=C(NCc1ccccc1)c1noc2c1CCCCC2	.	0.9
44	Cc1c(C(=O)NCCN2CCOCC2)sc2nc(-c3ccc(F)cc3)cn12	.	-2.4
45	Cc1nnc(C)n1/N=C/c1ccc(C(C)C)cc1	.	2.1
46	O=S(=O)(c1cccc2c(S(=O)(=O)N3CCCC3)cccc12)N1CCCC1	i	1.1
47	COc1ccccc1NC(=O)Cn1c(=O)n2nc(C)nc2c2ccccc21	.	-2.2
48	CC1CCCN(S(=O)(=O)c2coc(C(N)=O)c2)C1 (stereo not given)	i	0.8
49	C=CCOC(=O)C1=C(C)Nc2nnnn2C1c1cccc(OC)c1OC (stereo not given)	.	-0.1
50	CN(C)/C=C1\N=C(c2ccc3c(c2)OCO3)OC1=O	i	-0.6
51	C=CCn1c2ccccc2c2nnc(SCC(=O)NC(C(=O)OC)C(C)C)nc21 (stereo not given)	i	-1.8
52	Cc1ccc(CNC(=O)c2ccc(Cn3nc(C)c(Cl)c3C)o2)cc1	.	0.0
53	CCOc1ccc(C2N(c3cc(C)on3)C(=O)C3CCCN32)cc1OC (stereo not given)	.	-2.5
54	COc1ccc(NC(=O)c2ccco2)cc1NC(=O)c1cccs1	i	1.9
55	CC(=O)c1sc(NC(=O)c2ccc(Cn3cc(Br)cn3)o2)nc1C	.	-0.1
56	CC(C)(C)c1ccc2c(c1)N(CC(=O)O)C(=O)CO2	.	0.8
57	Cc1ccc2c(c1)N(CCC(=O)NC1CC1)C(=O)C(C)O2 (stereo not given)	.	-0.9
58	CCC1Oc2ccc(C)cc2N(CC(=O)N2CCN(c3ccc(F)cc3)CC2)C1=O (stereo not given)	.	0.3
59	CCC(=O)Nc1ccc(NC(=O)c2cccc(OC)c2)nc1	i	-1.3
60	CC(=O)Nc1ccc(S(=O)(=O)N2CCN(c3cc(C)nc4ccccc34)CC2)cc1	i	8.6
61	COc1cc(-c2nc(Cc3c(F)cccc3Cl)no2)cc(OC)c1OC	.	-6.4
62	CCCS(=O)(=O)N1CCCC(C(=O)NCCCN(Cc2ccccc2)C(C)C)C1 (stereo not given)	.	2.0
63	CCS(=O)(=O)N1CCC(C(=O)NCC2CCCO2)CC1 (stereo not given)	.	-0.9
64	CCN1CCN(Cc2ccccc2NC(=O)Nc2ccc(C)cc2)CC1	i	-0.2
65	COc1ccc(CCNS(=O)(=O)c2ccc3c(c2)CCN3C(=O)CCC(=O)O)cc1OC	i	2.1
66	OC(COCc1ccccc1)CN1CCN(c2ccccc2F)CC1 (stereo not given)	.	-0.9
67	CC(=O)N1CCc2cc(Br)cc(S(=O)(=O)N3CCN(C(=O)c4ccco4)CC3)c21	.	-0.5
68	C=C(C)Cn1c(N2CCN(CC)CC2)nc2c1c(=O)[nH]c(=O)n2C	i	-1.0
69	Cc1cccc(S(=O)(=O)Nc2cccc(-c3cn4ccsc4n3)c2)c1	.	0.6
70	CCOC(=O)C(CCc1nnc(N)s1)C(=O)OCC	i	-0.7
71	N#CCC(=O)Nc1ncn(Cc2ccccc2Cl)n1	i	-1.1
72	CCCC(=O)Nc1ccc(NC(=O)c2cccs2)cn1	i	1.8
73	O=C(Nc1cccnc1)c1coc(=O)c2ccccc12	.	0.8
74	O=C(NCCCN1CCOCC1)C1CC(=O)N(C2CCCCC2)C1 (stereo not given)	.	0.7
75	CC1CCCC(C)N1CCNC(=O)C1CCN(S(=O)(=O)N2CCCCC2)CC1 (stereo not given)	i	-4.8
76	O=C(c1ccccc1)c1ccc2nc(N3CCCCC3)c3nncn3c2c1	.	3.4
77	Cn1cccc1Cc1nnc(SCC(=O)N2CCc3ccccc32)n1-c1ccc(F)cc1	.	0.9
78	CC1=C(C(=O)NCCCOC(C)C)C2(CCC(C)CC2)OC1=O (stereo not given)	.	0.3
79	Cc1cc(C)c2nc(N3CCC(C(=O)N4CCCC4)CC3)sc2c1	.	0.0
80	CCC(=O)N1CCc2cc(S(=O)(=O)NC(Cc3ccccc3)C(=O)NC3CCCC3)ccc21 (stereo not given)	.	-0.9
81	CCC(C)NC(=O)c1ccccc1NC(=O)CN1C(=O)c2ccccc2S1(=O)=O (stereo not given)	.	-0.3
82	O=C(CN1CCN(S(=O)(=O)c2ccc(F)cc2)CC1)Nc1cc(C(F)(F)F)ccc1Cl	.	-0.2
83	O=S(=O)(c1cccs1)N1CCN(Cc2nc3ccccc3s2)CC1	i	3.9
84	COc1ccc(CN2CC(C(=O)NCCN3CCOCC3)CC2=O)cc1 (stereo not given)	.	-0.2
85	CCOC(=O)c1c(C)c(C(=O)Nc2ccc3c(c2)OCCO3)c(C)n1CC	.	-0.2
86	Cc1nc(N2CCN(c3ncccn3)CC2)c2oc3ccccc3c2n1	i	2.6
87	O=C(OCC(=O)N1CCCC1)c1cncc(Br)c1	i	-0.7
88	Cc1cc(C)c(C#N)c(SCS(=O)Cc2ccc(Cl)cc2)n1 (stereo not given)	.	-0.7
89	FC(F)Oc1ccc(-c2csc(Cc3nnc4n3CCCCC4)n2)cc1	i	?
90	CC(C)C1N(S(=O)(=O)c2ccccc2)CCN1S(=O)(=O)c1ccccc1	.	1.7
91	Cc1ccc(Nc2nc(N)nc(CN3CCN(Cc4ccc5c(c4)OCO5)CC3)n2)cc1	i	3.5
92	Cc1n[nH]c(C)c1S(=O)(=O)N1CCOCC1	.	-2.6
93	COc1ccc(S(=O)(=O)Nc2ccc(F)c(F)c2)cc1Cl	i	-0.6
94	COc1ccc(-c2nc3cnccn3c2Nc2ccc3c(c2)OCO3)cc1	.	-0.8
95	COCCN1CCN(c2c(C)c(C)nc3cc(-c4cccc(OC)c4)nn23)CC1	i	-0.2
96	CCOc1nc(SCCOc2ccccc2)nc(N(C)C)n1	i	-1.6

# Next structures
cpd	canonical_smiles	VCAM-1 up	Proteasome disasm
97	CCOC(=O)C1=C(C)N=c2s/c(=C\c3cccn3C)c(=O)n2C1c1cccc(OC)c1OC (stereo not given)	109	14
98	CC1CC(=O)c2cnc(NCC3CCCO3)nc2C1 (stereo not given)	i	-1.2
99	CSc1ccccc1C(=O)NC1CC2CCC1C2 (stereo not given)	i	0.1
100	Cc1ccc(CCNC(=O)C2CCN(C(=O)c3sccc3-n3cccc3)CC2)cc1	.	0.3
101	O=C(NCCCN1CCOCC1)c1cc(-c2ccc(Br)cc2)on1	.	0.1
102	CC(NC(=O)c1cccs1)C(c1cccs1)N1CCN(c2ccccc2)CC1 (stereo not given)	.	0.4
103	CCOC(=O)N1CCN(S(=O)(=O)c2ccc3c(c2)SCC(=O)N3)CC1	.	-1.4
104	Fc1ccccc1-c1nc(NCCCN2CCOCC2)c2ccccc2n1	i	3.9
105	COc1ccc(CCNC(=O)Cn2c(=O)oc3ccccc32)cc1OC	.	-1.0
106	Cn1c(Cn2c(=O)sc3ccccc32)nnc1SCC(=O)Nc1ccc(F)cc1	.	-4.1
107	Cc1ccc(-c2cn3nc(C)c(C)nc3n2)cc1	i	3.2
108	COc1cccc(C2CC(c3c(Cl)cccc3Cl)n3nc(N)nc3N2)c1 (stereo not given)	i	0.1
109	Cc1cccc(N2CCN(C(=O)c3ccc(NC(=O)C4CCCO4)cc3)CC2C)c1 (stereo not given)	.	0.6
110	CCC(=O)N1CCN=C1SCc1ccc(F)cc1	.	2.7
111	CCOC(=O)N1CCN(S(=O)(=O)c2ccc(C(=O)Nc3nc4ccc(F)cc4s3)cc2)CC1	.	0.2
112	N#Cc1ccccc1Cn1c(=O)n(Cc2ccc(C(=O)NCc3ccco3)cc2)c(=O)c2sccc21	i	0.7
113	OCc1nc2ccccc2n1CC(O)Cn1ccc2ccccc21 (stereo not given)	i	1.1
114	CCOC(=O)c1c(O)c2ccccc2n(-c2ccccc2)c1=O	.	-0.4
115	c1ccc2c(c1)CNC1(CCCCC1)C2	i	1.8
116	CCn1cc(C2=NOC(C(=O)Nc3ccc4c(c3)OCO4)C2)c(C)n1 (stereo not given)	.	-1.1
117	O=C(COc1ccc(S(=O)(=O)NC2CCCCC2)cc1)NCc1ccccn1	i	-1.5
118	CCOc1ccccc1C1C(C(=O)Nc2ccccc2OC)=C(C)Nc2nnnn21 (stereo not given)	.	-0.1
119	Cc1oc2cc3oc(=O)c4c(c3cc2c1C)CCC4	.	-1.1
120	Cc1cccc(-n2nc3c(c2NC(=O)c2ccc(S(=O)(=O)N4CCOCC4)cc2)CSC3)c1C	.	-0.8

# Assay outcomes deposited in PubChem by several laboratories.
